Screening results: PubChem BioAssay, several laboratories
Sa RN4220 lethal = kills Staphylococcus aureus RN4220. inhibition, % (concentration not given with the values). S. aureus RN4220 growth, OD600, 16 h. actives 0.33% (n = 330,000);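 active means z-score of -3 or lower and OD600 up to 0.18 on both plates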;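 further: plate controls were untreated cells for no effect and reference antibiotic for full effect; stock transfer was 100 nL into about 80 µL; one replicate is shown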
Mtb hypoxia rep = reduces hypoxia-regulated biosensor signal in M. tuberculosis | M. tuberculosis hypoxia-regulated fluorescent reporter, fluorescence | fluorescence inhibition, % (concentration not given with the values) | actives 0.1% (n = 300,000);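 active means 35 to 45% if threefold the growth effect, above 45% if 1.5-fold the growth effect; inactive means the rest, general growth blockers included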;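 further: wells of about 50 µL received 100 nL stock; 0% = vehicle wells and 100% = reference inhibitor wells; whole bacteria with a GFP reporter of the hypoxia response; strong numbers were not always called active; many hits fall short of the cut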
Bead autofluor = compound fluorescence in toxin protease inhibitor counterscreen. actives 3.1% (n = 360,000). fluorescence intensity (no concentration beside the values). AID 624483. compound autofluorescence counterscreen, microsphere flow cytometry; active compounds read high;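 active means at least 3 SD above the mean of all compounds, about 16000 in these data; inconclusive means too few beads counted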;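 further: 100 nL of 1 mM stock went into each well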
ugtP null kill = compounds lethal to S. aureus RN4220 ugtP deletion mutant; OD600 growth, 16 h; some inactives read as strong as hits; growth inhibition, % (no concentration beside the values); actives 0.54% (n = 330,000); AID 1259309;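 active means z-score under -3 and OD600 up to 0.15 on both plates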;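 further: plate controls were untreated wells for no effect and antibiotic for full effect; wells of about 80 µL received 100 nL stock; the first replicate is given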
PrP UTR inh = suppresses PrP 5' UTR mRNA reporter expression. cell-based PrP 5' UTR mRNA reporter, plate reader. inhibition, % (test concentration not listed). actives 0.35% (n = 340,000). AID 488862;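 active means every replicate at 50% or more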;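 further: 0 = median of the neutral control wells; tested in H4 reporter cells; numbers are from one replicate; inactives centre near -14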
BJeLR viability = BJeLR cell viability loss. BJeLR (HRASV12) viability, CellTiter-Glo ATP luminescence, 48 h; reference of the scale not given here. inhibition, % (concentration not given with the values). actives 0.17% (n = 300,000). AID 1554;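 active means replicate mean above 50%; inconclusive means above 50% but judged a plate artefact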;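 further: 50 nL library stock added to about 25 µL; numbers are from one replicate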
Mtb hypoxia rep growth = second read-out of Mtb hypoxia rep, no call of its own (marks repeat the call); growth inhibition, %; measured here: M. tuberculosis growth (absorbance);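 0% = vehicle and 100% = reference antibiotic; read after six days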
* hit, by the source's call; ? = inconclusive; nt = not tested or not shown.

The line under a structure holds: Sa RN4220 lethal	Mtb hypoxia rep	Mtb hypoxia rep growth	Bead autofluor	ugtP null kill	PrP UTR inh	BJeLR viability
O=C(Nc1ccc2c(c1)OCO2)Nc1ccccn1
→ 5.0	12	14	2152	-11	-65	5
COc1ccc(S(=O)(=O)N(CC(=O)NCc2ccccn2)c2ccc(Cl)cc2)cc1
→ -4.0	-19	-13	3976	3	-22	-4
CC1CCCN(C(=O)C2c3ccccc3C(=O)N3CCc4ccccc4C23)C1 (centres undefined)
→ 3.9	-2	10	23724*	1	-6	6
Cc1ccc(-c2noc(CN3CCOCC3)n2)cc1
→ 2.6	7	5	3645	8	-41	3
CC(=O)c1ccc(OCC(=O)NC2CCS(=O)(=O)C2)cc1 (centres undefined)
→ 4.0	9	4	9595	2	-10	-2
COc1ccc(NC(=O)CCCN(C)S(=O)(=O)c2ccc(C)cc2)cc1
→ -1.7	16	-1	10835	5	-31	4
COc1ccc2nc(Cl)cc(Cl)c2c1
→ 4.6	16	8	3805	7	-13	4
CCOc1ccc(CN(C)C(=O)c2ccc3ccccc3n2)cc1
→ 7.2	-11	3	5112	7	-31	-7
C=C(C)CSc1nnc2n(N)c(=O)c3ccccc3n12
→ 4.8	13	14	9126	0	-24	-2
Cc1c(C(=O)OCC(=O)N2c3ccccc3CC2C)oc2ccccc12 (centres undefined)
→ -0.2	0	-5	3146	4	-14	0
COCCCNc1oc(-c2ccccc2Cl)nc1C#N
→ 6.2	11	6	2695	-4	-46	2
COC(=O)C1C2C=CC(C3CC23)C1C(=O)OCC(=O)c1ccc(OC)cc1 (centres undefined)
→ 1.0	7	8	4480	7	-13	-5
Cc1cc(NS(=O)(=O)c2ccc(NC(=O)c3cccnc3)cc2)nc(C)n1
→ 1.7	4	7	4413	10	-27	1
Cc1cc(=O)oc2cc(OCC3CC(c4ccccc4)=NO3)ccc12 (centres undefined)
→ 7.9	-6	-2	12279	-5	-17	6
CCN(CC(=O)NC1CCS(=O)(=O)C1)S(=O)(=O)c1ccccc1 (centres undefined)
→ 1.1	5	-2	6294	4	-16	-2
COc1ccc(S(=O)(=O)N(CC(=O)NCc2ccncc2)c2cc(C)cc(C)c2)cc1OC
→ 4.8	13	5	3660	6	-21	-4
Cc1cc(C(=O)OCC(=O)N(CC(C)C)c2c(N)n(Cc3ccccc3)c(=O)[nH]c2=O)c(C)o1
→ -1.5	-8	2	nt	2	-3	-7
CC(C)(C)c1ccc(C(=O)N2CCC(C(=O)NCCC3=CCCCC3)CC2)cc1
→ 4.6	-6	-2	8162	-14	-7	-1
Clc1ccc(CSC2=NCCCN2)cc1Cl
→ 1.9	-2	1	2797	-1	-17	-5
CC(=O)C1CCC2C3CC(C)C4(O)CC(=O)CCC4(C)C3C(O)CC12C (centres undefined)
→ 4.2	4	8	2877	7	-10	nt
CCCNc1c(NS(=O)(=O)c2cccs2)c(=O)oc2ccccc12
→ 5.7	1	-3	4259	9	-11	5
CCc1ccc(NS(=O)(=O)c2cc3c(cc2C)n(C)c(=O)c(=O)n3C)cc1
→ 4.0	nt	nt	5649	4	5	-7
O=C(COC(=O)c1ccc(F)cc1)NCc1ccc(F)cc1
→ 5.8	8	7	5218	9	-14	nt
COc1cccc(CNC(=O)CN(C)S(=O)(=O)c2ccc3c(c2)c(=O)n(C)c(=O)n3C)c1
→ 13	-4	1	5601	1	-18	4
O=C(O)C(Nc1nc(C(F)(F)F)nc2ccccc12)c1ccccc1 (centres undefined)
→ 5.1	-17	-17	3843	4	-9	-10
C/C(C=NNC(=O)c1cccs1)=C\c1ccccc1
→ 5.8	-1	5	nt	-6	nt	nt
O=C(CCn1c(=O)sc2ccccc21)NCCCn1ccnc1
→ 4.1	2	6	8312	7	2	-3
O=C1Nc2c(Cl)cc(Cl)cc2C1=O
→ 5.1	10	6	3331	1	-22	nt
CCOc1ccc(S(=O)(=O)NCCC(=O)NCC(c2ccc(OC)cc2)N2CCCC2)cc1 (centres undefined)
→ 1.4	-3	-1	10339	5	-26	nt
Cc1ccc(N2C(=O)C3CC(c4ccccc4)=C4C5C=CC(C6C(=O)N(c7ccc(C)cc7)C(=O)C56)C4C3C2=O)cc1 (centres undefined)
→ 4.3	6	8	2570	-6	2	-1
CCCCN(C)c1ccc([N+](=O)[O-])cc1
→ 11	11	-1	2894	14	-19	-3
CSc1ccc(CNC(=O)c2c(C)noc2C)s1
→ 1.4	1	-3	4199	8	-25	4
COCc1c(C(=O)N/N=C(/C)c2cccs2)nnn1-c1nonc1N
→ nt	nt	nt	6147	nt	-15	2
Cc1cc(C)c[n+](C(C)C(=O)c2ccc(-c3ccccc3)cc2)c1 (centres undefined)
→ 3.0	8	7	2467	0	-29	-1
CCCOc1ccc(C(CC(=O)O)NC(=O)c2ccc3c(c2)OCO3)cc1 (centres undefined)
→ -5.5	nt	nt	4308	1	-19	-2
Cc1cccc(-n2ncc3c(N(C)Cc4ccccc4)ncnc32)c1
→ -1.1	9	10	5392	3	-68	-5
Cc1ccc(-c2cnc(SCCNC(=O)c3ccco3)[nH]2)cc1
→ 3.2	-1	-4	3970	2	-6	3
CCCCn1c(SCc2ncc(-c3ccccc3)o2)nc2cc(S(N)(=O)=O)ccc21
→ 0.3	nt	nt	9782	-9	-7	3
CNC(=O)CC(=O)Nc1ccccc1C(=O)O
→ 2.4	-4	0	3012	-3	-13	0
Cc1ccc(S(=O)(=O)c2cc3c(=O)n4ccccc4nc3n(Cc3ccco3)c2=N)cc1
→ 2.3	-6	-7	20456*	-20	-4	0
COc1ccc(C(=O)NCCS(=O)(=O)NCc2ccc(F)cc2)cc1
→ 4.2	-9	-2	?	3	-22	-6
Cc1ccc(C)c(OCC(O)CN2CCCCC2C)c1 (centres undefined)
→ -1.6	nt	nt	2793	-5	-19	-4
O=C(N/N=C/c1c(O)n(Cc2ccco2)c(=O)[nH]c1=O)c1ccccc1
→ 5.5	0	-2	3749	12	-23	7
Cc1ccc2nc(N(CCCN(C)C)C(=O)c3ccc(S(=O)(=O)N(C)C)cc3)sc2c1
→ 0.6	3	6	2492	6	-19	-8
CCCc1nnc(NC(=O)CS(=O)(=O)c2ccc(C)cc2)s1
→ 2.6	-1	6	5773	-3	1	-2
CCOc1ccc(NC(=O)CCC(=O)NNC(=O)COc2ccc(C)cc2Br)cc1
→ -1.5	-16	2	?	-7	-25	13
CC1CCCC(C)N1C(=O)COC(=O)c1ccc2ccccc2n1 (centres undefined)
→ 6.3	11	1	4940	3	-20	nt
CC(=NNC(=O)c1ccc(C(C)(C)C)cc1)c1ccccn1
→ 46	25	22	nt	1	nt	nt
O=C(CC(=O)Nc1cccc(Cl)c1)NN=Cc1ccccc1
→ 5.3	4	5	nt	-9	nt	nt
CCCC(O)(CCC)C(=O)NN(C(=O)OC)c1ccccc1
→ -0.1	-12	8	2628	-2	-26	nt
Cc1ccc(OCCCCN2CCc3ccccc3C2)cc1
→ 3.2	16	5	4316	9	-22	-3
Cc1ccc(C)c(NC(=O)C(=O)NCC2CCCN2S(=O)(=O)c2cccs2)c1 (centres undefined)
→ 4.1	8	-1	6488	5	-13	5
CCOC(=O)n1cc(-c2cnc(CNC(=O)C(C)(c3ccccc3)c3ccccc3)o2)c2ccccc21
→ 6.6	3	-1	nt	14	nt	-2
NC(N)=NC(N)=Nc1ccc2ccccc2c1
→ 1.2	6	1	2220	-8	-22	-13
CCOC(=O)C(=CNc1ccccc1N1CCOCC1)C(=O)OCC
→ 3.3	8	-1	3414	10	-13	-11
COc1ccc(N(C(=O)c2ccc(S(=O)(=O)N3CCCC3)cc2)C2C=CS(=O)(=O)C2)cc1 (centres undefined)
→ 3.9	3	5	5161	12	-19	-1
CCOC(=O)C1(CCc2ccccc2)CCN(Cc2ccn[nH]2)CC1
→ -0.6	0	4	3428	-19	13	5
O=C(C1CC1)N1N=C(c2ccccc2)CC1(O)C(F)(F)C(F)(F)F (centres undefined)
→ 6.9	13	7	3857	8	-44	-2
O=C(c1ccc(Cl)cc1)C1CCN(CC(=O)N2CCCCC2)CC1
→ 4.0	18	7	5118	2	-6	-3
Fc1cccc(CSc2nc3ccncc3[nH]2)c1
→ 3.2	3	3	4130	-3	-11	-2

Four of these compounds, reformatted.
> O=C(C1CC1)N1N=C(c2ccccc2)CC1(O)C(F)(F)C(F)(F)F (centres undefined)
  Sa RN4220 lethal = 6.9
  Mtb hypoxia rep = 13
  Mtb hypoxia rep growth = 7
  Bead autofluor = 3857
  ugtP null kill = 8
  PrP UTR inh = -44
  BJeLR viability = -2
> COc1ccc(N(C(=O)c2ccc(S(=O)(=O)N3CCCC3)cc2)C2C=CS(=O)(=O)C2)cc1 (centres undefined)
  Sa RN4220 lethal = 3.9
  Mtb hypoxia rep = 3
  Mtb hypoxia rep growth = 5
  Bead autofluor = 5161
  ugtP null kill = 12
  PrP UTR inh = -19
  BJeLR viability = -1
> Cc1cc(C)c[n+](C(C)C(=O)c2ccc(-c3ccccc3)cc2)c1 (centres undefined)
  Sa RN4220 lethal = 3.0
  Mtb hypoxia rep = 8
  Mtb hypoxia rep growth = 7
  Bead autofluor = 2467
  ugtP null kill = 0
  PrP UTR inh = -29
  BJeLR viability = -1
> CC(=NNC(=O)c1ccc(C(C)(C)C)cc1)c1ccccn1
  Sa RN4220 lethal = 46
  Mtb hypoxia rep = 25
  Mtb hypoxia rep growth = 22
  Bead autofluor = nt
  ugtP null kill = 1
  PrP UTR inh = nt
  BJeLR viability = nt

New compounds follow
The line under a structure holds: Sa RN4220 lethal	Mtb hypoxia rep	Mtb hypoxia rep growth	Bead autofluor	ugtP null kill	PrP UTR inh	BJeLR viability
Cc1cc(C)cc(C(=O)Nc2ccc(NC(=O)c3cccs3)cc2)c1
→ -1.3	8	8	6331	5	-5	4
CN1CCN(C(=O)CCn2c(=O)c3cccn3c3cccnc32)CC1
→ 1.0	2	-3	5974	3	1	1
COc1ccccc1NCc1cc(=O)oc2c(C)c(O)ccc12
→ 0.2	1	-2	5307	-9	-1	-1
Cc1cccc(N(CC(=O)Nc2cccnc2)S(C)(=O)=O)c1
→ -1.6	-13	2	3615	-11	4	3
CC(C)Cn1c(N)c(C(=O)COC(=O)c2ccc3c(c2)OCCO3)c(=O)n(C)c1=O
→ 1.1	18	15	9333	-4	-10	5
CCOC(=O)c1c(C)[nH]c(C(=O)OCC(=O)N(CC(C)C)c2c(N)n(Cc3ccccc3)c(=O)[nH]c2=O)c1C
→ 1.6	1	6	5904	4	-7	1
CC(=O)Nc1ccc(C(=O)NN=Cc2cc(Br)cc(Br)c2O)cc1
→ -1.9	4	-8	nt	5	nt	nt
O=C(CSc1nc2ccccc2o1)N1CCN(S(=O)(=O)c2ccc3ccccc3c2)CC1
→ 1.9	10	-1	2598	12	2	10
O=[N+]([O-])c1ccc(Cl)c(/C=N/n2c(COc3ccccc3)n[nH]c2=S)c1
→ nt	nt	nt	1951	nt	-7	-5
Cn1c(SCC(=O)c2ccccc2)nnc1-c1ccc(O)cc1
→ 30	16	29	20320*	-3	-56	-4
CC(=O)c1c(C)n(CC(=O)NCc2ccc3c(c2)OCO3)c2ccccc12
→ 2.7	-2	-1	8653	1	-25	6
C/C(=N\Nc1c([N+](=O)[O-])c(C)nn1C)c1ccc(F)cc1F
→ nt	nt	nt	5194	nt	15	2
On1nnc2c3ccccc3c3ccccc3c21
→ 5.0	6	3	2136	-25	-15	0
COc1ccc(Cl)cc1NC(=S)NCc1cccnc1
→ 8.3	18	10	3138	11	-18	0
CCOC(=O)N1CCN(C(=O)c2cc(-c3ccc(OCC)cc3)nc3ccccc23)CC1
→ 3.2	4	-1	12002	7	-57	19
Cc1cc(C=C2C(=O)c3ccccc3C2=O)c(C)n1-c1ccccc1
→ 9.2	6	1	9467	-16	75*	16
COCCNC(=O)c1cc(-c2cccs2)on1
→ 5.4	7	10	5329	-12	-59	17
COc1ccc(C(F)(F)F)cc1N/C=C/c1nnnn1-c1ccc(C)cc1
→ -0.1	13	-7	5860	1	1	4
COc1ccc(CCC(=O)NCCOc2ccc(Cl)cc2)cc1
→ 0.6	15	8	3649	5	-17	-3
COc1cccc(-c2cc(C(F)(F)F)nc(N3CCCCC3)n2)c1
→ -0.2	0	2	8400	79	-7	1
Cc1ccc(NC(=O)CN2c3cccc4cccc(c34)S2(=O)=O)cc1S(=O)(=O)N1CCOCC1
→ 0.8	17	7	2383	-5	-35	3
CCOC(=O)/C=C(\C)Nc1cc(C)nn1-c1ccccc1
→ nt	nt	nt	4076	nt	-20	3
Cn1c(Cc2cccc3ccccc23)nnc1SCC(=O)N1CCN(c2cccc(Cl)c2)CC1
→ -3.3	11	6	3465	10	-26	0
Cc1ccc(C(=O)Nc2cccnc2)cc1NC(=O)c1ccco1
→ 0.8	2	6	3405	18	-22	-1
